High-throughput results as filed in PubChem BioAssay.
Ecoli rRNA inh – reduced GFP signal of wild-type E. coli, primary screen, bacterial rRNA inhibitor project, GFP/RFP fluorescence, OD600, single point | E. coli WT GFP vs humanized-ribosome RFP mutants, 24 h; active compounds read low; DMSO median 0, no signal -100 | GFP signal change (wild-type ribosome), % (concentration not given with the values) | 1.6% of 350,000 active | AID 720706, 2013;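 active = significant combined selectivity score with lowered wild-type GFP, culture density cut under 30%, mutant RFP and density less affected; inactive = any of these conditions unmet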; note: one replicate is shown; some compounds called inactive have numbers as strong as hits
UCH37 inh – inhibitors of human UCH37 deubiquitinase, primary screen, biochemical, Ub-AMC cleavage, fluorescence; purified proteasome/UCH37; inhibition, % (test concentration not listed); 0.33% of 330,000 active;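 active = mean of two replicates above 20%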;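 note: 0% = compound-free wells with enzyme and 100% = wells lacking proteasome; stock transfer was 100 nL into about 20 µL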
Target sequence (Q9Y5K5 whole entry, looked up): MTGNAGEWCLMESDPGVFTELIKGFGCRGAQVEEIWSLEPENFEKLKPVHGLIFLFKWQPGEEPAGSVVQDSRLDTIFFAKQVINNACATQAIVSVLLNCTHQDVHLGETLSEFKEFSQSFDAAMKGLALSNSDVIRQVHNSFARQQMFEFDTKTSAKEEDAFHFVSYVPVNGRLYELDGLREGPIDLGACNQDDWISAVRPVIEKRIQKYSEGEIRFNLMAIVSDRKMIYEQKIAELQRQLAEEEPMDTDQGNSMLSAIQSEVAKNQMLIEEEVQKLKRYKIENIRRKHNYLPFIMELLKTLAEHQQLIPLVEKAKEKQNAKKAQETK
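system = Proteasome-associated human UCH37 deubiquitinase | amount = 0.15 nM proteasome as dispensed | medium = pH 7.4 Tris-HCl (50 mM) with ovalbumin, ATP-MgCl2, DTT | incubation = 30 min preincubation with enzyme, 25 min cleavage at room temperature | detection = AMC fluorescence 355/460 nm | read-out basis = percent inhibition | controls = no-proteasome and no-compound wells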
ALR H2O2 inh – inhibitors of human ALR sulfhydryl oxidase, primary screen, biochemical, H2O2 detection, HRP-luminol luminescence, single point; FAD-linked sulfhydryl oxidase ALR (Homo sapiens), P55789; purified ALR, DTT oxidation; inhibition, % (test concentration not listed); 3.8% of 290,000 active;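 active = mean and each replicate at 75% or more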;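 note: stock transfer was 7.5 nL into about 7.5 µL; 0% = neutral wells and 100% = wells with inactivated enzyme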
Target sequence (P55789 whole entry, looked up): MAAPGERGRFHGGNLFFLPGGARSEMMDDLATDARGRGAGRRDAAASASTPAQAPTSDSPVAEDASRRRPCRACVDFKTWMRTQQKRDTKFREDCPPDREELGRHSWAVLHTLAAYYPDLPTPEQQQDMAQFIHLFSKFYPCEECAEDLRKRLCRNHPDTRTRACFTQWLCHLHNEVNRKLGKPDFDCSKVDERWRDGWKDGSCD
HNF4A DNA FP – change in binding of human HNF4A to DNA, primary screen, biochemical, fluorescence polarization, FITC-DNA; Hepatocyte nuclear factor 4-alpha (Homo sapiens), P41235; 0.3% of 360,000 active; activity change, % at 10 µM; AID 1224865, 2016; 1 h; in the data active = activity change above about 30%, passing the limit was not always enough;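 note: controls were the assay level and a saturating level of protein; the project sought stronger binding though the title names inhibitors; some compounds called inactive have numbers as strong as hits; positive values seem to mean higher polarization but the record does not say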
E coli growth – E. coli growth inhibition, primary screen, OD600 | Escherichia coli growth, 23 h; active compounds read low | OD600 absorbance (no concentration beside the values) | 0.21% of 330,000 active;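 active = OD600 absorbance below the run mean of sample wells minus 3.6 SD, in any replicate, cut at about 0.56 in these data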;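 note: stock transfer was 300 nL into about 60 µL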
FGF22 binding – binders of human FGF22 protein, primary screen, FGF22 synaptogenesis inhibitor project, biophysical, thermal shift, single point | Fibroblast growth factor 22 (Homo sapiens), Q9HCT0 | recombinant FGF22 thermal shift, SYPRO orange fluorescence; percent of sucrose octasulfate shift, DMSO zero | calls only at 9.99 µM | 1.5% of 340,000 active | AID 651658, 2012;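 active = melting point raised past a set limit in the mean and every replicate; three in four hits are not shown here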
Beta2AR agonist – beta2AR agonists driving receptor internalization, primary screen, cell-based, FAP fluorogen, flow cytometry | Am2.2-beta2AR cells; reference of the scale not given here | response, % (test concentration not listed) | Beta-2 adrenergic receptor (Homo sapiens), P07550 | 0.43% of 340,000 active | AID 504454, 2011;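 active = response above a set limit, near 3 SD of response in nonfluorescent compounds, cut at about 42% in these data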;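 note: stock transfer was 100 nL into about 11 µL; a reference agonist was the positive control; negative values mostly stem from fluorescent compounds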
Target sequence (P07550 whole entry, looked up): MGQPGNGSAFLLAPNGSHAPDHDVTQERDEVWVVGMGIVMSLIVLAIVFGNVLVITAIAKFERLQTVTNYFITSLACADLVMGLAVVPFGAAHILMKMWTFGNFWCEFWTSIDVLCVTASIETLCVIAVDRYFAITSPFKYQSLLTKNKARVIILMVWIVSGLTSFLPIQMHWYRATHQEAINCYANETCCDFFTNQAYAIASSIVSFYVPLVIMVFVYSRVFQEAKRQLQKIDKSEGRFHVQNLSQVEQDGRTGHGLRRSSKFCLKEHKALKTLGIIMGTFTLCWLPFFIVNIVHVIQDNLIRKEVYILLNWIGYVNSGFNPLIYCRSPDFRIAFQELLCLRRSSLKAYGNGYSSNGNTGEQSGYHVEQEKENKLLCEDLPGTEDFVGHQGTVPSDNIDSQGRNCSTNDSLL
Ecoli rRNA inh OD600 – further read-out of Ecoli rRNA inh, marked with its call; OD600 change, %; measured here: OD600 growth;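 optical density of the mix in the first replicate; 0 = DMSO median and -100 = no signal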
Ecoli rRNA inh RFP – second read-out of Ecoli rRNA inh, no call of its own (marks repeat the call); RFP signal change, %; measured here: RFP humanized mutant strains;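 first replicate; 0 = DMSO median and -100 = no signal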
Numbers without * were called inactive; i = inactive; . = no result given; & = joins results of further samples. This is a subset; count on the stated rates, not on these rows.

SMILES	Ecoli rRNA inh	Ecoli rRNA inh OD600	Ecoli rRNA inh RFP	UCH37 inh	ALR H2O2 inh	HNF4A DNA FP	E coli growth	FGF22 binding	Beta2AR agonist
COc1ccc(C(=O)N2CCC(C)(C(=O)O)C2)c(OC)c1 (configuration not stated)	7	4	-1.1	.	.	-2.1	.	i	.
CC[C@]12c3[nH]c4ccc(OC)cc4c3CCN1C(=O)C(CC(=O)NC/C=C(\C)CCC=C(C)C)C[C@@H]2C(=O)N1CCN(C(=O)C2CC2)CC1 (some centres not stated)	8	3	4.1	3.9	.	0.9	0.69	i	-3
Cc1cccc(CN2C(=O)N/C(=C/c3cc(C)n(-c4ccccn4)c3C)C2=O)c1	.	.	.	0.2	-3	0.3	.	.	4
COc1cccc(C(=O)NC2CC3CCCC(C2)N3Cc2ccc(F)cc2)c1 (configuration not stated)	13	18	1.6	.	.	2.1	.	i	.
Cc1cc2cc(CCNC(=O)c3ccc(S(=O)(=O)N4CCOCC4)cc3)c(=O)[nH]c2cc1C	.	.	.	2.0	1	0.8	0.68	.	15
Nn1c(SCC(=O)Nc2c(F)cc(F)cc2Br)nnc1C1CCCCC1	5	-1	-5.0	-1.9	-1	32	0.71	i	-7
CCCOc1ccc(CCC(=O)N/N=C/c2ccncc2)cc1	-6	-6	3.1	.	-4	4.7	.	i	5
COc1ccc(-c2c(-c3ccc(S(C)(=O)=O)cc3)sc3ccc(OC)cc23)cc1	-1	6	-4.2	-5.9	-1	6.8	.	i	4
COc1ccc(NC(=S)N(CCCN2CCCCC2)Cc2cccs2)cc1	.	.	.	-1.5	-25	-0.3	0.67	.	-6
Cc1ccc(-c2nnc(NCc3ccccc3)c3ccccc23)cc1	-8	-9	-5.5	5.6	-4	0.2	0.71	i	5
CCSc1ncnc2sc(C)c(C)c12	.	.	.	1.6	.	-0.5	0.63	.	8
CCN1C(=O)S/C(=C/c2ccc(Sc3nc4ccccc4[nH]3)o2)C1=O	-23*	-10.0*	7.1*	-2.7	-4	102*	0.68	i	-14
Cc1ccc(C)c(NC(=S)NCCc2ccc(F)cc2)c1	-30	-47	-9.9	-0.2	4	5.1	0.69	i	7
CCOc1ccc(NC(=O)CC2C(=O)N(c3ccc(OC)c(Cl)c3)C(=S)N2C2CC2)cc1 (configuration not stated)	10	10	3.0	-1.4	-1	-0.2	0.72	i	-16
O=C(O)CCCCCNS(=O)(=O)c1c(Cl)cccc1Cl	.	.	.	0.7	-13	2.2	0.66	.	-3
COc1ccc(C(OCC(O)CNC(C)c2ccccc2)c2ccc(OC)cc2)cc1 (configuration not stated)	-1	-7	2.9	1.8	-88	2.7	0.63	i	51*
CCN(c1ccccc1)S(=O)(=O)c1cc(NC(=O)CN2CCN(C)CC2)ccc1Cl	0	-10	3.7	0.9	-5	1.4	0.67	i	6
Cc1cc2cc(C(c3nnnn3Cc3ccco3)N3CCCCC3)c(=O)[nH]c2cc1C (configuration not stated)	.	.	.	-5.5	3	5.4	0.68	.	0
Cc1ccccc1CNC(=O)c1ccccc1C	.	.	.	1.5	2	-2.3	0.68	.	-1
Cc1ccc(NC(=O)CSc2nc3nn(-c4ccccc4)c(=O)c-3c3n2CCCCC3)cc1F	-1	4	0.3	2.4	.	-1.2	0.73	i	6
COc1cccc(C(=O)Nc2nc3c(s2)CN(C)CC3)c1	.	.	.	2.6	-7	37	0.71	.	2
Cc1cccc(NC(=O)c2nc[nH]c2C(=O)NCCCNC(=O)c2[nH]cnc2C(=O)Nc2cccc(C)c2)c1	15	13	5.2	.	5	5.8	.	i	7
Cc1cc(OCCCCN2C(=O)NC(C)(C)C2=O)cc(C)c1Cl	.	.	.	7.0	15	0.1	0.69	.	-3
O=C(Nc1ccc(Cc2ccncc2)cc1)c1cc([N+](=O)[O-])ccc1N1CCOCC1	-14	-10	5.9	6.6	.	3.3	0.71	i	10
COc1ccc(-c2nn(-c3ccccc3)cc2CNC[C@H]2O[C@@H](n3ccc(=O)[nH]c3=O)[C@H](O)[C@@H]2O)cc1	14	7	3.0	.	.	0.4	.	i	.
CCN(CC)CCNC(=O)c1ccc(NC(=O)c2cn(-c3ccccc3)nc2-c2cccs2)cc1	-11	-9	7.1	4.7	-14	6.4	0.67	i	20
O=c1c(Cl)c(Cl)cnn1Cc1ccc(F)cc1	-8	-2	0.5	3.7	15	6.8	.	.	24
Clc1ccc(-c2nc(C3CCCCC3)no2)cc1	12	12	-1.6	1.1	2	-3.3	0.69	i	2
Cc1ccc(Cl)cc1N1CCN(C(=O)C2(S(=O)(=O)c3ccc(Cl)cc3)CC2)CC1	.	.	.	0.7	.	1.0	0.71	.	-5
O=C(c1ccc(NS(=O)(=O)c2cccc(C(F)(F)F)c2)cc1)N1CCCC1	-2	4	-1.0	2.0	-14	0.0	0.7	i	7
CCOc1ccc(NC(=O)CN2CCN(CC(=O)Nc3ccc4c(c3)OCO4)CC2)cc1	.	.	.	5.9	-1	-1.9	0.67	.	4
COC(=O)CN(C#N)c1nc(SC)nc(N(C)C)n1	.	.	.	5.5	-2	-1.8	0.7	.	.
CSc1ccc(Cn2c(C)c(C(=O)NCc3cccs3)sc2=O)cc1	-10	-8	-3.0	.	.	7.6	.	i	.
COc1ccc(CN2CCNC(=O)C2CC(=O)N2CCCO2)c(OC)c1 (configuration not stated)	-2	-1	-1.1	-3.3	-9	0.4	0.71	i	-5
Cc1ccc(S(=O)(=O)CCC(=O)OC2CC(C)OC2=O)cc1 (configuration not stated)	14	5	1.0	-1.3	.	2.0	0.71	i	-5
O=C(Nc1nonc1-c1ccc(Cl)cc1)c1ccccc1	-35	-33	-20	4.0	-2	0.9	0.66	i	-4
COc1ccc(-c2noc(-c3ccccc3C(=O)NCc3ccco3)n2)cc1OC	.	.	.	3.8	0	-3.4	0.66	.	13
CC(C)NC(=O)c1cc(C2CCCCN2C(=O)OCCF)on1 (configuration not stated)	11	17	-8.2	.	.	-0.4	.	i	.
CSCc1ccc(C(=O)N2CCCC(Nc3ccc(F)cc3)C2)o1 (configuration not stated)	-7	-23	-4.0	1.8	98*	-2.0	0.71	i	4
Cc1cccc(Cn2c(N(C)CCO)nc3c2c(=O)[nH]c(=O)n3C)c1	2	10	-1.8	3.2	-6	1.7	0.76	i	8
O=C(COC(=O)COc1ccccc1)NCc1ccco1	13	27	-0.8	-0.3	29	-0.6	0.7	i	-1
COc1ccc(NC(=O)CCN2CCN(S(=O)(=O)c3ccc(Br)cc3)CC2)cc1	-8	-7	5.3	4.4	-14	-1.4	0.7	i	-13
COC(=O)c1nc(-n2nc(C)cc2C)ccc1Cl	.	.	.	-0.1	.	-4.7	0.66	.	1
CCN1CCN(C(=O)C2CCC(CNS(=O)(=O)c3ccc(NC(C)=O)cc3)CC2)CC1 (configuration not stated)	18	17	1.9	1.8	-3	1.8	0.68	i	-7
Cc1ccc(S(=O)(=O)N(C)C[C@H]2Oc3ccc(NC(=O)Nc4c(C)noc4C)cc3CC(=O)N([C@@H](C)CO)C[C@@H]2C)cc1	5&9	3&8	0.0&9.4	0.9	5	1.8	.	i	0
CNc1nc(Oc2cccc(F)c2)c2sccc2n1	-1	-8	-3.7	.	.	5.4	.	i	.
CN1C(C(=O)NCc2cccc(C(F)(F)F)c2)CC2Cn3c(nc4cc5ccccc5cc43)C21 (configuration not stated)	-3	-5	3.0	-0.8	.	-2.2	0.67	i	0
CCOC(=O)CCn1c2nc(C)cc(C)c2c(=O)n1-c1ccccc1	.	.	.	-83	7	1.6	0.71	.	8
CCCCNC(=O)c1ccccc1NC(=O)CCSc1ccccc1	.	.	.	-0.3	-1	0.6	0.72	.	-9
CCOc1ccc(NS(=O)(=O)c2ccc(C(=O)N3CCCCCC3)cc2)cc1	-5	-12	3.6	-1.6	.	-0.6	0.65	i	5

(list continues)
SMILES	Ecoli rRNA inh	Ecoli rRNA inh OD600	Ecoli rRNA inh RFP	UCH37 inh	ALR H2O2 inh	HNF4A DNA FP	E coli growth	FGF22 binding	Beta2AR agonist
CCOc1ccc(NCc2cc3c(C(C)(C)C)nn(-c4ccccc4)c3[nH]c2=O)cc1	1	7	-5.7	2.1	-10	4.9	0.66	i	0
Cc1ccc(CCNC(=O)CCSCc2ccc(Cl)cc2)cc1	5	9	-5.0	-0.4	2	-4.0	0.71	i	11
CC1CC(C)CN(C(=O)CSc2ncnc3sccc23)C1 (configuration not stated)	20	12	32	2.8	-8	3.5	0.68	i	3
CCOc1ccc(NC(=O)Nc2cc(C)on2)cc1	.	.	.	5.5	-11	-2.5	0.68	.	5
Cc1ccc(S(=O)(=O)N(C)CC(=O)NCCCn2nc(C)cc2C)cc1	4	6	-0.3	3.0	-7	0.5	0.72	i	-1
COc1ccccc1N1CCN(S(=O)(=O)c2cccc(F)c2)CC1	.	.	.	3.7	97*	2.7	0.71	.	-2
CN(Cc1ccc(F)cc1)C(=O)CN1CCN(S(=O)(=O)c2ccc3c(c2)OCCCO3)CC1	-18*	-14*	6.3*	.	.	-1.5	.	i	.
COCCn1c(SCC(=O)Nc2ccccc2OC)nnc1-c1ccco1	5	7	0.6	3.3	-12	-2.4	0.7	.	1
Cc1cc(-c2c(C(=O)N3CCOCC3)c(C)nn2-c2cccc(C(F)(F)F)c2)no1	.	.	.	3.3	-7	5.6	0.67	i	-2
COc1ccc(Cl)cc1NC(=O)CN(C)CC(=O)Nc1ccccc1C(F)(F)F	-28	-36	-3.3	-0.5	-3	-2.7	0.71	i	-4
COc1ccc(C2=NS(=O)(=O)N(C)C(C(=O)Nc3ccc4c(c3)OCO4)=C2)cc1OC	-12	-12	-1.6	7.7	.	0.5	0.73	i	3
Clc1ccc2c(-c3ccccc3)nc(-c3cccs3)nc2c1	18	12	4.2	.	.	-3.8	.	i	.
CCN1CCN(c2ccc(Nc3ccnc4ccccc34)cc2)CC1	.	.	.	12	.	0.9	0.65	i	10
O=C(O)CC1SC(N/N=C/c2ccc(Br)cc2)NC1=O (configuration not stated)	11	11	1.2	.	-1	-2.3	.	i	-2
O=C(NCCO)c1ccc2c3n(nc2c1)-c1ccccc1CO3	2	4	-3.3	-8.7	-4	-4.4	0.64	i	5
CCOC(=O)N1CCN(C(=O)c2cc3ccc(OC)cc3[nH]2)CC1	2	0	0.0	4.8	-11	-3.8	0.71	i	0
